From PubChem
Sa growth inh: S. aureus growth inhibition at 42 and 30 °C, primary screen, LtaS inhibitor project, RN4220, two temperatures; OD600, 20 h, 42 °C; hits give low values; relative growth, % (test concentration not listed); 170,000 compounds, 0.53% hits;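 active = growth at 42 °C up to 50% and 20 or more points under that at 30 °C, or under 10% at both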;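 also: 300 nL library stock went into each well; scaled to the means of positive and negative controls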
GIV Gai3 FP: inhibitors of GIV peptide binding to Galpha-i3, primary screen, biochemical, fluorescence polarization, FITC-GIV GBA peptide, rat Galphai3 | 90 min; hits give low values; scaled: aluminum fluoride 0%, vehicle 100% | percent of control (FP), % (test concentration not listed) | 210,000 compounds, 0.42% hits | AID 1224905, 2016;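 active = replicate mean at 85% of control or lower, very high polarization wells dropped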;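 also: wells of about 15 µL received 100 nL stock; the first replicate is given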
Target sequence (P08753 whole entry, looked up): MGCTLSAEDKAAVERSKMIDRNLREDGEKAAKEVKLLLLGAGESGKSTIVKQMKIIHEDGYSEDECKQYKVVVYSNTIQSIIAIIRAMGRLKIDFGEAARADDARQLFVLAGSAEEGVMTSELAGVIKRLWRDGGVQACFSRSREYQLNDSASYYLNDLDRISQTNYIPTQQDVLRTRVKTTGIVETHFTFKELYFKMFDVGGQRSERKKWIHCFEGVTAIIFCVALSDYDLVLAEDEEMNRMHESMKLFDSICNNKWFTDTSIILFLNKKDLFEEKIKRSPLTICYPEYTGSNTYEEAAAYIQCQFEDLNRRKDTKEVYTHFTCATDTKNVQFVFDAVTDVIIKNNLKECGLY
HCMV UL50-53 inh: inhibitors of HCMV UL50-UL53 interaction, biochemical, HTRF. 190,000 compounds, 0.15% hits. normalized percent inhibition. inhibition, % (concentration not given with the values). HCMV UL50-UL53 nuclear egress complex (human cytomegalovirus);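 active = both replicates at 50% or more, plus weaker picks with an unusually low signal ratio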;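 also: stock transfer was 100 nL into about 20 µL; 0% = negative control wells and 100% = wells with untagged competitor protein; inactives centre near -12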
Sa growth inh second temp: also measured in Sa growth inh; calls as there; relative growth, %; measured here: growth at 30 °C;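 optical density after 20 h as mean of two plates; 100% = untreated growth and lower means inhibition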
* marks the source's active call; other numbers are inactive results; · = not tested or not shown; & = joins results of further samples.

Labels used below: A = Sa growth inh; B = Sa growth inh second temp; C = GIV Gai3 FP; D = HCMV UL50-53 inh
CCCc1nc(N)c(C#N)c(-c2ccccc2)c1CC
  A = 86.6	B = 80.3	C = 104.5	D = ·

CCN(CC)CCNCc1cccs1
  A = 87.9	B = 74.6	C = 101.3	D = -14.6

CC(=O)N1c2ccc(S(=O)(=O)NCC3CCC(C(=O)Nc4cc(C)ccc4C)CC3)cc2CC1C (stereo not given)
  A = 114.0	B = 93.6	C = 103.1	D = ·

Cc1cc(C(=O)N(C)Cc2ccc(Br)cc2)no1
  A = 88.1	B = 96.6	C = ·	D = -1.3

CC(=O)c1[nH]c(C)c(C(=O)NCc2ccc(Cl)cc2)c1C
  A = 90.7	B = 84.0	C = 103.0	D = 7.2

CCOc1ccccc1CNC(=O)Cn1c(C)c2cnn(-c3ccccc3)c(=O)c2c1C
  A = 108.8	B = 83.6	C = 108.4	D = ·

CCOC(=O)c1ccccc1NC(=O)CSc1ccc(-c2sc(-c3ccccc3)nc2C)nn1
  A = 102.3	B = 70.1	C = 102.1	D = ·

Cc1cc2nc(C(F)(F)F)n3c4ccccc4nc3n2n1
  A = 91.2	B = 82.0	C = ·	D = -16.1

COc1ccc2[nH]c(-c3ccccc3)cc(=O)c2c1
  A = 110.2	B = 90.7	C = 106.0	D = -4.5

CSc1nc(N)c2c3c(sc2n1)CCC3
  A = 103.2	B = 106.3	C = 107.4	D = -17.1

CCc1ccc(-n2ncc(-c3cc(C(=O)NC(C)C)c4ccccc4n3)c2C)cc1
  A = ·	B = ·	C = 100.5	D = -19.4

S=c1[nH]nc(CN2CCCCCC2)n1-c1ccccc1
  A = 98.6	B = 120.0	C = 104.0	D = 6.7

Cc1[nH]c2ccc(C(=O)N3CCCC3)cc2c1C
  A = 102.0	B = 103.2	C = 110.0&101.4	D = -7.6&-22.0

N#Cc1c2c(c(NC3CCCC3)n3c1nc1ccccc13)CCC2
  A = 93.6	B = 87.6	C = 107.7	D = -13.6

CCCn1cc(S(=O)(=O)c2ccc(OC)cc2)c(=O)c2cc(F)c(N3CCCC(C)C3)cc21 (stereo not given)
  A = 110.9	B = 84.9	C = 104.0	D = ·

Next section; the last 2 above are carried over.
Labels used below: A = Sa growth inh; B = Sa growth inh second temp; C = GIV Gai3 FP; D = HCMV UL50-53 inh
N#Cc1c2c(c(NC3CCCC3)n3c1nc1ccccc13)CCC2
  A = 93.6	B = 87.6	C = 107.7	D = -13.6

CCCn1cc(S(=O)(=O)c2ccc(OC)cc2)c(=O)c2cc(F)c(N3CCCC(C)C3)cc21 (stereo not given)
  A = 110.9	B = 84.9	C = 104.0	D = ·

CCOc1ccc(Nc2c(S(=O)(=O)c3ccc(Cl)cc3)cnc3ccc(OCC)cc23)cc1
  A = 95.2	B = 90.7	C = 106.5	D = -10.3

Cn1cnc(S(=O)(=O)N2CCN(c3ccc(N4CCOCC4)nn3)CC2)c1
  A = ·	B = ·	C = 104.7	D = -44.7

Cc1cc(C)n(-c2ccc(C(=O)Oc3ccc4oc5c(c4c3)CCCC5)cc2)n1
  A = 115.5	B = 97.5	C = ·	D = -29.1

CCOCCc1c(O)nc(SCC(=O)NC(C)c2ccccc2)[nH]c1=O (stereo not given)
  A = 92.0	B = 93.1	C = 102.0	D = -35.5

O=C1Nc2ccccc2SC1CC(=O)N1CCN(c2ccc(C(F)(F)F)cn2)CC1 (stereo not given)
  A = 94.8	B = 91.6	C = ·	D = -16.4

Cc1ccc(-c2nc3ncccc3o2)cc1NC(=O)c1ccc(-c2cccc(Cl)c2C)o1
  A = 98.2	B = 80.2	C = 113.4	D = -59.6

COc1ccc(OC)c(NC(=O)CCc2nc(-c3ccc(C)cc3)no2)c1
  A = 109.2	B = 98.4	C = 104.5	D = 6.9

Cc1ccc2oc(-c3nnc(C(=O)NCCN(C)C)o3)c(C)c2c1
  A = ·	B = ·	C = 110.5	D = -10.0

Cc1ccc(C)c(NC(=O)c2nccnc2C(=O)O)c1
  A = ·	B = ·	C = 107.5	D = 12.3

O/N=C(/c1ccccn1)C1CCCCC1
  A = 147.4	B = 91.8	C = 98.3	D = 3.0

CC(C)N(Cc1ccccc1)C(=O)N(C)C
  A = 99.6	B = 105.2	C = 101.7	D = -1.0

Cc1oc(-c2ccccc2Cl)nc1CSc1nnc(C)n2c1cc1occc12
  A = 94.8	B = 81.6	C = 104.4	D = -31.6

CC1=C(C(=O)Nc2ccc(F)cc2F)C2(CCN(C(C)C)CC2)OC1=O
  A = 85.5	B = 90.9	C = 101.4	D = ·

C=C(C)CN(CC)C(=O)CSc1ncnc2ccccc12
  A = 94.7	B = 96.5	C = ·	D = 5.5

CCn1nc(C)c2c1c(=O)n(CCc1ccccc1)c(=O)n2CC(=O)NC(C)CCc1ccccc1 (stereo not given)
  A = ·	B = ·	C = 97.4	D = -0.8

COC(=O)c1cc(S(=O)(=O)N(C)CC2COc3ccccc3O2)cn1C (stereo not given)
  A = 100.0	B = 91.9	C = 108.2	D = -1.1

O=C(C1Cc2ccccc2CN1S(=O)(=O)c1ccc(F)cc1)N1CCCCC1 (stereo not given)
  A = 86.3	B = 107.6	C = 93.0	D = -1.1

COc1ccc(-n2c(=O)c3c4c(sc3n(CC(=O)C(C)(C)C)c2=O)CCCC4)c(OC)c1
  A = 90.0	B = 86.1	C = 101.0	D = -12.7

CC(NS(=O)(=O)c1ccc(Br)cc1)C(c1cccs1)N1CCOCC1 (stereo not given)
  A = 92.6	B = 91.5	C = 98.8	D = -21.6

COc1ccc(NC(=O)CN2C(=O)C(c3ccccc3)=NC23CCC(C)CC3)cc1Cl (stereo not given)
  A = 93.7	B = 85.8	C = 102.7	D = -22.8

N#C/C(=C/c1ccc(Sc2nc3ccccc3[nH]2)o1)C(=O)N1CCOCC1
  A = 104.4	B = 96.5	C = 106.5	D = -73.8

CCC(=O)Nc1ccc2c(c1)nc(CN1CCCC1)n2CC
  A = ·	B = ·	C = 102.6	D = 14.7

Cc1ccccc1Cc1c(C)nc2nc(SCC(=O)N(C)c3ccccc3)nn2c1C
  A = 110.3	B = 81.0	C = 100.3	D = ·

O=C(NCc1ccccc1Cl)c1cccc(C(=O)NCc2ccccc2Cl)n1
  A = ·	B = ·	C = 99.7	D = 0.7

CCOC(=O)c1c(C)[nH]c(C)c1S(=O)(=O)N1CCC(C(=O)NCC2CCCO2)CC1 (stereo not given)
  A = ·	B = ·	C = 98.8	D = 2.2

CN(C1CCCCC1)S(=O)(=O)c1ccccc1NC(=O)c1ccc[nH]c1=O
  A = 94.1	B = 90.9	C = ·	D = -20.6

COc1ccc(Cl)cc1NC(=O)C1CCCN(S(=O)(=O)c2ccc3c(c2)CCCC(=O)N3)C1 (stereo not given)
  A = 115.6	B = 91.9	C = 110.3	D = ·

COc1cn(-c2ccccc2)nc1C(=O)OC(C)C(N)=O (stereo not given)
  A = 73.7	B = 83.8	C = ·	D = -28.5

CCC1Cn2c(C(=O)NC(C)C)cc3cccc(c32)O1 (stereo not given)
  A = ·	B = ·	C = 107.8	D = -10.1

CC1CCCN(C(=O)[C@H]2[C@@H]3C[C@@H]4[C@H]2C(=O)O[C@@H]4C3)C1 (stereo not given in full)
  A = ·	B = ·	C = 108.6	D = -18.9

Cc1ccc(OCc2cc(=O)n3c4c(sc3n2)CCCC4)c(C)c1
  A = 99.0	B = 88.4	C = 101.0	D = -34.0

O=C(NCc1ccc2c(c1)CCN2C(=O)c1ccc(Cl)cc1)c1cccc(F)c1
  A = 88.4	B = 87.4	C = 103.3	D = ·

O=C(NCc1ccccc1Cl)C1CCC(CNS(=O)(=O)c2ccc(Br)s2)CC1 (stereo not given)
  A = 100.1	B = 104.8	C = 103.7	D = 7.2

O=C1C(c2ccncc2)N(CCC2=CCCCC2)C(=O)CN1C1CCCCC1 (stereo not given)
  A = 108.2	B = 95.8	C = 102.6	D = 3.1

Cc1ccc(NC(=O)CN2C(=O)CCc3cc(S(=O)(=O)N4CCCCC4)ccc32)cc1N(C)C
  A = 103.7	B = 87.5	C = 108.4	D = ·

COc1ccc(/C=C/C(=O)Nc2ccc3nc4c(c(Nc5ccccc5OC)c3c2)CCCC4)cc1
  A = 112.5	B = 91.6	C = 106.9	D = -10.6

O=S(=O)(c1ccccc1)N1CCC(n2cnc3cccnc32)CC1
  A = ·	B = ·	C = 94.6	D = -11.9

COc1ccccc1NC(=O)Cn1c(=O)c(N(C)C)c(N)n(C)c1=O
  A = 89.0	B = 95.2	C = ·	D = -25.1

Cc1cc(NC(=O)CCCn2c(C)c3cnn(-c4ccccc4)c(=O)c3c2C)ccc1Br
  A = 101.8	B = 92.7	C = 100.6	D = 8.2

CC1CN(c2ccc(Cl)cc2)c2nc3c(c(=O)n(C)c(=O)n3C)n2C1 (stereo not given)
  A = ·	B = ·	C = 104.0	D = 8.4

COc1cc(/C=C2/SC(=S)N(CCC(=O)NC34CC5CC(CC(C5)C3)C4)C2=O)cc(OC)c1OC
  A = ·	B = ·	C = 109.3	D = -15.4

Cc1cc(C)c(C#N)c(SCCC(=O)Nc2nc(-c3ccccc3)ns2)n1
  A = 77.8	B = 87.4	C = 111.7	D = ·

COc1ccc(NC(=O)CN(C)C(=O)c2ccc3c(c2)NC(=O)CS3)cc1
  A = 97.8	B = 91.7	C = ·	D = -26.1

COc1ccc(N(C(=O)C(C)C)S(=O)(=O)c2cccs2)cc1
  A = 118.1	B = 75.1	C = 103.8	D = -7.0

CNS(=O)(=O)c1cn(CC(=O)Nc2ccccc2)cc1S(=O)(=O)NC
  A = 114.2	B = 90.0	C = 100.5	D = -27.6

CCOC(=O)C1=C(NC(=S)Nc2ccccc2)CC2=C1CCCC2
  A = 96.5	B = 115.3	C = ·	D = -4.3

CC(C)c1ccc(-c2noc(SCC(=O)N(C)c3ccc(F)cc3)n2)cc1
  A = 86.4	B = 88.6	C = 112.4	D = ·

O=C(Cc1cccs1)N/N=C/c1ccc(C(=O)O)cc1
  A = 83.7	B = 80.4	C = 94.5	D = -62.2

CCCN(C(=O)c1cc2c(s1)-c1ccccc1OC2)c1ccccc1F
  A = 88.3	B = 81.1	C = 102.2	D = 11.9

C=CCNC(=O)c1ccc(NC2=NC3CS(=O)(=O)CC3S2)cc1 (stereo not given)
  A = 103.3	B = 92.1	C = 97.0	D = -18.2

O=C(O)C1CC1c1ccc(Br)cc1 (stereo not given)
  A = 110.1	B = 80.7	C = 100.8	D = -22.5

O=C(CCn1c(=O)c2ccccc2n(Cc2ccc(F)cc2Cl)c1=O)NCc1ccc2c(c1)OCO2
  A = 99.4	B = 94.2	C = 108.0	D = 0.7

CC(C)CN(CC(C)C)c1ncnc2c1cnn2-c1ccc(Cl)cc1
  A = 126.8	B = 88.2	C = 101.8	D = ·

CCc1ccc(N2C(=O)NC(=O)/C(=C\c3ccc(OCC(=O)OC)c(OC)c3)C2=O)cc1
  A = ·	B = ·	C = 116.4	D = -2.6

Cc1cc(C)c2c(n1)OC(N1CCOCC1)(C(F)(F)F)CC2=O (stereo not given)
  A = 97.8	B = 92.4	C = 102.8	D = -16.7

Cc1nc(C)c(-c2ccc(SCC(=O)Nc3cccc(C)c3C)nn2)s1
  A = 100.7	B = 84.8	C = 94.7	D = ·

O=C(Nc1ccc(Cn2nnc3ccccc32)cc1)c1ccco1
  A = 57.5	B = 85.7	C = 96.8	D = -4.7

Cc1cc(=O)[nH]c(Nc2ccc(Oc3ccccc3)cc2)n1
  A = ·	B = ·	C = 104.4	D = -21.4

O=C(O)c1cccc(S(=O)(=O)N2Cc3ccccc3C2)c1
  A = 115.8	B = 90.1	C = 93.8	D = -12.4

COc1cccc2cc(-c3csc(Nc4cccc(C(F)(F)F)c4)n3)c(=O)oc12
  A = 96.9	B = 81.2	C = 101.8	D = ·

CSC1=NCCN1C(=O)C1CCCCC1
  A = 92.5	B = 89.5	C = 103.8	D = -27.0

Compounds shown so far that contain fluorine (eleven):
Labels used below: A = Sa growth inh; B = Sa growth inh second temp; C = GIV Gai3 FP; D = HCMV UL50-53 inh
Cc1cc2nc(C(F)(F)F)n3c4ccccc4nc3n2n1
  A = 91.2	B = 82.0	C = ·	D = -16.1

CCCn1cc(S(=O)(=O)c2ccc(OC)cc2)c(=O)c2cc(F)c(N3CCCC(C)C3)cc21 (stereo not given)
  A = 110.9	B = 84.9	C = 104.0	D = ·

O=C1Nc2ccccc2SC1CC(=O)N1CCN(c2ccc(C(F)(F)F)cn2)CC1 (stereo not given)
  A = 94.8	B = 91.6	C = ·	D = -16.4

CC1=C(C(=O)Nc2ccc(F)cc2F)C2(CCN(C(C)C)CC2)OC1=O
  A = 85.5	B = 90.9	C = 101.4	D = ·

O=C(C1Cc2ccccc2CN1S(=O)(=O)c1ccc(F)cc1)N1CCCCC1 (stereo not given)
  A = 86.3	B = 107.6	C = 93.0	D = -1.1

O=C(NCc1ccc2c(c1)CCN2C(=O)c1ccc(Cl)cc1)c1cccc(F)c1
  A = 88.4	B = 87.4	C = 103.3	D = ·

CC(C)c1ccc(-c2noc(SCC(=O)N(C)c3ccc(F)cc3)n2)cc1
  A = 86.4	B = 88.6	C = 112.4	D = ·

CCCN(C(=O)c1cc2c(s1)-c1ccccc1OC2)c1ccccc1F
  A = 88.3	B = 81.1	C = 102.2	D = 11.9

O=C(CCn1c(=O)c2ccccc2n(Cc2ccc(F)cc2Cl)c1=O)NCc1ccc2c(c1)OCO2
  A = 99.4	B = 94.2	C = 108.0	D = 0.7

Cc1cc(C)c2c(n1)OC(N1CCOCC1)(C(F)(F)F)CC2=O (stereo not given)
  A = 97.8	B = 92.4	C = 102.8	D = -16.7

COc1cccc2cc(-c3csc(Nc4cccc(C(F)(F)F)c4)n3)c(=O)oc12
  A = 96.9	B = 81.2	C = 101.8	D = ·
